Hedgehog inh: Sonic Hedgehog pathway inhibition; inhibition, % (no concentration beside the values); actives 2.1% (n = 22,000); AID 2313; Shh-LIGHT2 Gli-luciferase reporter, 30 h;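 active = replicate mean of 65% or more; inconclusive = mean lower but half the replicates past it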;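 also: pathway switched on by Shh-conditioned medium diluted 1 in 25 in low serum; 100 nL library stock added to about 40 µL; 0% = median of neutral wells and 100% = positive control level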
YB-1 expression: YB-1 expression inhibition | AID 434959 | actives 0.37% (n = 30,000) | delta delta Cp (YB-1 minus CDIP) (concentration not given with the values) | U2OS, qRT-PCR YB-1 vs CDIP delta delta Cp, 16 h; active compounds read high; zero = DMSO, each unit about twofold;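 active = delta delta Cp rounded down to an integer at or above 3, about 3 SD of DMSO wells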;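 also: higher means less YB-1 transcript or more CDIP transcript relative to DMSO; stock transfer was 100 nL into about 100 µL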
PD-1 reverse act: activators reversing PD-1 mediated T-cell inhibition | primary human CD4 T cells, PD-L1 beads, CellTiter-Glo 96 h | activation, % (test concentration not listed) | 29,000 tested, under 10 active | AID 2316;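 active = replicate mean of 50% or more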;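 also: 0% = median vehicle wells and 100% = positive control; 100 nL library stock added to about 50 µL; numbers are from one replicate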
MITF inh: blocks MITF activity; TRPM1 promoter luciferase, luminescence, 24 h; actives 0.28% (n = 37,000); inhibition, % (no concentration beside the values);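 active = most replicates at 85% or more, or half of them and the mean; inconclusive = half reach 85% but not the mean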;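 also: human melanocyte line stably carrying TRPM1 promoter luciferase reporter; 0% = vehicle wells and 100% = a positive control; the first replicate is given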
* marks the source's active call; other numbers are inactive results; ? = inconclusive; · = not tested or not shown. Some of the compounds tested; rates above refer to the full screens.

SMILES	Hedgehog inh	YB-1 expression	PD-1 reverse act	MITF inh
CC(C)NC(=O)Nc1ccc2c(c1)C(=O)N([C@H](C)CO)C[C@H](C)[C@H](CN(C)C(=O)CCC(F)(F)F)OCCCC[C@@H](C)O2	-18.6	-0.32	0.9	-5.5
C[C@@H]1CCCCO[C@H](CN(C)Cc2ccc3c(c2)OCO3)[C@@H](C)CN([C@H](C)CO)C(=O)c2cc(NC(=O)c3ccncc3)ccc2O1	-4.0	-0.103	·	-11.1
C[C@@H]1CCCCO[C@H](CN(C)S(C)(=O)=O)[C@@H](C)CN([C@H](C)CO)C(=O)c2cc(NC(=O)Cc3ccccc3)ccc2O1	-7.2	0.0145	0.7	-12.3
COc1ccc(CN(C)C[C@@H]2Oc3ccc(NC(=O)CCCCCC(=O)Nc4ccccc4N)cc3CC(=O)N([C@H](C)CO)C[C@H]2C)cc1	·	-0.153	0.1	-14.1
C[C@H]1CN([C@@H](C)CO)C(=O)c2cccc(NC(=O)Nc3ccc(C(F)(F)F)cc3)c2O[C@@H]1CN(C)C(=O)Nc1ccc2c(c1)OCO2	-14.0	-0.624	·	-12.7
O=C(COc1ccccc1[N+](=O)[O-])Nc1ccc2oc(-c3cccc4ccccc34)nc2c1	·	·	4.3	24.1
O=S(=O)(NCCO)c1cccc2cccnc12	-30.3	0.202	-1.3	-29.3
Cc1ccc(S(=O)(=O)N(C)C[C@H]2Oc3c(NS(=O)(=O)c4ccccc4)cccc3C(=O)N([C@H](C)CO)C[C@H]2C)cc1	2.0	0.166	0.6	-8.7
COc1ccc(NC(=O)CCN2C(=O)c3ccccc3C2=O)cc1Cl	·	·	2.6	-14.9
CC1CCCC(C)N1C(=S)NCCCN1CCOCC1 (stereo not given)	-10.9	-0.209	0.4	6.1
Cc1ccc(C)c(NC(=O)Cn2cc([N+](=O)[O-])cn2)c1	·	·	-2.1	-3.1
C[C@@H]1CN([C@H](C)CO)C(=O)Cc2cc(NC(=O)Nc3ccccc3)ccc2O[C@@H]1CN(C)Cc1ccc(Oc2ccccc2)cc1	42.1	-0.201	-7.4	31.6
C[C@H]1CN([C@@H](C)CO)C(=O)Cc2cc(NC(=O)Nc3ccc(C(F)(F)F)cc3)ccc2O[C@@H]1CN(C)Cc1ccc(C(=O)O)cc1	-10.4	-0.0809	·	3.0
C[C@H](CO)N1C[C@H](C)[C@@H](CN(C)C(=O)Nc2ccc3c(c2)OCO3)Oc2ccc(NC(=O)C3CCCCC3)cc2C1=O	·	-0.205	-1.2	-3.1
Cc1ccccc1NC(=O)CSCCO	·	·	1.7	-5.2
COc1c(-c2coc3cc4c(cc3c2=O)CC(O)C(C)(C)O4)ccc2c1C=CC(C)(C)O2 (stereo not given)	90.8*	0.106	·	99.1*
C[C@@H]1CCCCO[C@@H](CN(C)Cc2ccc(C(=O)Nc3ccccc3N)cc2)[C@@H](C)CN([C@H](C)CO)C(=O)c2cc(NC(=O)Nc3ccc4c(c3)OCO4)ccc2O1	·	-0.203	0.8	-17.0
C[C@@H]1CN([C@H](C)CO)C(=O)Cc2cc(NC(=O)Cc3ccccc3)ccc2O[C@@H]1CN(C)C(=O)Nc1ccc(C(F)(F)F)cc1	-21.1	0.321	-1.1	5.0
Cc1cc(C(=O)Nc2cccc3c2O[C@@H](CN(C)C(=O)Nc2ccc(C(F)(F)F)cc2)[C@@H](C)CN([C@@H](C)CO)C3=O)n(C)n1	-22.8	-0.0324	-3.8	6.3
CN(CC(=O)Nc1ccc(Cl)cc1C(F)(F)F)S(=O)(=O)c1ccc(Cl)cc1	·	·	-5.1	25.1
C[C@@H]1CN([C@@H](C)CO)C(=O)c2cccc(NC(=O)c3nc4ccccc4s3)c2O[C@@H]1CN(C)C(=O)NC1CCCCC1	11.4	-0.472	-2.9	23.9
Cc1noc(C)c1NC(=O)Nc1cccc2c1O[C@H](CN(C)S(=O)(=O)c1cccs1)[C@H](C)CN([C@@H](C)CO)C2=O	?	-0.237	·	-18.4
COc1cccc(NC(=O)CSc2nnc(-c3ccco3)n2-c2ccccc2)c1	·	·	-2.4	-16.7
c1cnc2c(OCc3nc4ccccc4[nH]3)cccc2c1	·	·	-2.0	15.6
C[C@@H]1CN([C@@H](C)CO)C(=O)c2cccc(NS(=O)(=O)c3cccs3)c2O[C@H]1CN(C)S(=O)(=O)c1ccc(F)cc1	-20.6	-0.482	·	-9.2
Remaining list, next part.
SMILES	Hedgehog inh	YB-1 expression	PD-1 reverse act	MITF inh
C[C@H]1CN([C@@H](C)CO)C(=O)c2cc(NC(=O)c3ccncc3)ccc2O[C@@H]1CN(C)S(=O)(=O)c1ccc(F)cc1	35.3	-0.164	0.7	-9.5
COC(=O)c1ccccc1NC(=O)CN(C)S(=O)(=O)c1ccc(F)cc1	·	·	2.6	-8.4
O=c1oc(-c2cccnc2)nc2sc3c(c12)CCCCC3	-42.6	-0.0389	-0.1	-34.2
COc1cccc(Nc2nc(C3(C)CC4(CC(C)OC4=O)C(=O)O3)cs2)c1 (stereo not given)	·	·	-0.1	28.8
C[C@@H]1CN([C@H](C)CO)C(=O)c2cc(NC(=O)Cc3cn(C)c4ccccc34)ccc2O[C@@H]1CN(C)S(=O)(=O)c1cccs1	·	0.147	-2.4	11.4
C[C@@H]1CN([C@H](C)CO)C(=O)c2cccc(NC(=O)Nc3cccc4ccccc34)c2O[C@@H]1CN(C)Cc1ccc(C(F)(F)F)cc1	-14.6	0.42	-1.2	6.2
C[C@H](CO)N1C[C@H](C)[C@H](CN(C)Cc2ccc(Cl)c(Cl)c2)Oc2ccc(NC(=O)C3CCCCC3)cc2CC1=O	16.7	0.0671	0.8	11.3
C[C@H](CO)N1C[C@H](C)[C@H](CN(C)CC2CC2)Oc2ccc(NC(=O)CCCCCC(=O)Nc3ccccc3N)cc2CC1=O	·	-0.964	-0.8	-6.9
N#CC(C(=O)c1cccc(C(F)(F)F)c1)=C1SCCCCS1	-16.5	-0.586	0.1	-38.4
C[C@@H]1CN([C@@H](C)CO)C(=O)c2cc(NC(=O)Nc3ccc4c(c3)OCO4)ccc2O[C@@H]1CN(C)S(=O)(=O)c1cccs1	·	0.188	0.6	-3.0
C[C@H](CO)N1C[C@H](C)[C@H](CN(C)C(=O)Nc2ccc(C(F)(F)F)cc2)Oc2ccc(NC(=O)C3CCCCC3)cc2CC1=O	4.7	0.106	-0.5	-10.1
C[C@H](CO)N1C[C@H](C)[C@@H](CN(C)C(=O)Nc2ccccc2)Oc2c(NC(=O)Nc3ccccc3)cccc2C1=O	·	-0.641	·	0.7
COc1ccc(S(=O)(=O)Nc2ccc3c(c2)C(=O)N([C@H](C)CO)C[C@H](C)[C@H](CN(C)CC2CCCCC2)O3)cc1	·	-0.528	1.6	-2.0
O=c1[nH]c2ccccc2c(=O)n1CCSc1ccccc1	·	-1.32	-1.0	-22.8
O=C(O)c1ccc2c(c1)OCO2	4.0	0.306	·	-3.5
C[C@@H]1CN([C@H](C)CO)C(=O)c2cc(NC(=O)C3CCCCC3)ccc2O[C@@H]1CN(C)S(=O)(=O)c1ccc(F)cc1	·	-0.0346	0.7	-25.4
COc1ccc(C(=O)CSc2ncnc3sc4c(c23)CCCC4)cc1	·	·	-0.7	20.7
COc1ccc(S(=O)(=O)Nc2ccc3c(c2)C(=O)N([C@H](C)CO)C[C@H](C)[C@H](CN(C)C(=O)c2ccncc2)OCCCC[C@@H](C)O3)cc1	-1.9	0.0436	2.2	12.1
COc1ccc(S(=O)(=O)Nc2ccc3c(c2)C(=O)N([C@H](C)CO)C[C@H](C)[C@H](CN(C)Cc2ccc(Cl)c(Cl)c2)O3)cc1	15.6	-0.2	-0.9	6.9
COC(=O)c1ccc(NC(=O)CSc2ncn(-c3ccccc3)n2)cc1	·	·	1.1	-8.7
CC(C)NC(=O)N(C)C[C@@H]1Oc2ccc(NC(=O)Nc3ccccc3)cc2C(=O)N([C@@H](C)CO)C[C@H]1C	-5.1	-0.274	0.5	-6.7
O=C1c2ccccc2C(=O)N1OS(=O)(=O)c1cccc2cccnc12	·	·	-11.8	7.8
CSc1nnc(C(C)(C)C)c(=O)n1/N=C/c1c(O)ccc2ccccc12	·	0.253	-1.2	14.0
COc1ccc(NC(=O)CSc2nc3c(cc2C#N)CCCCC3)cc1	·	·	-1.2	2.0
COc1ccc(S(=O)(=O)N(C)C[C@H]2Oc3ccc(NC(=O)NC(C)C)cc3C(=O)N([C@@H](C)CO)C[C@H]2C)cc1	-38.9	0.257	-0.1	-9.1

Overlap with the part before: 2 compounds, followed by the next part.
SMILES	Hedgehog inh	YB-1 expression	PD-1 reverse act	MITF inh
COc1ccc(NC(=O)CSc2nc3c(cc2C#N)CCCCC3)cc1	·	·	-1.2	2.0
COc1ccc(S(=O)(=O)N(C)C[C@H]2Oc3ccc(NC(=O)NC(C)C)cc3C(=O)N([C@@H](C)CO)C[C@H]2C)cc1	-38.9	0.257	-0.1	-9.1
CC(C)NC(=O)N(C)C[C@H]1Oc2ccc(NC(=O)CCCCCC(=O)Nc3ccccc3N)cc2CC(=O)N([C@@H](C)CO)C[C@H]1C	·	0.0201	3.0	-20.2
Cc1sc2ncnc(SCC(=O)NCC3CCCO3)c2c1-c1ccc(Cl)cc1 (stereo not given)	·	·	-3.1	10.3
CC1(C)CC(N(Cc2cccs2)C(=O)c2ccco2)CCO1 (stereo not given)	-14.4	0.118	0.7	-0.5
C[C@H]1CN([C@@H](C)CO)C(=O)c2cccc(NC(=O)C3CCOCC3)c2O[C@@H]1CN(C)C(=O)Nc1cccc2ccccc12	13.1	0.221	·	0.3
COc1ccccc1NC(=O)C1=C(C)Nc2ncnn2C1c1ccncc1 (stereo not given)	·	·	1.9	6.7
COc1ccc(CN(C)C[C@@H]2Oc3ccc(NC(=O)NC4CCCCC4)cc3C(=O)N([C@H](C)CO)C[C@H]2C)cc1	-33.7	0.211	·	5.8
COc1cccc(NC(=O)c2cnccc2C(F)(F)F)c1	-11.6	-0.246	0.4	-18.5
Cc1ccc(S(=O)(=O)N(C)C[C@H]2Oc3c(NC(=O)Nc4ccc5c(c4)OCO5)cccc3C(=O)N([C@H](C)CO)C[C@@H]2C)cc1	9.3	0.0523	0.8	-16.5
COC(=O)[C@@H]1OC(=O)C2OC23[C@@]1(C)CCC1[C@]2(C)C(C[C@@H](O)[C@]13C)C(C)(C)[C@H](OC(C)=O)C[C@@H]2OC(C)=O (stereo not given in full)	-10.2	-0.35	·	-16.6
C[C@@H]1CN([C@@H](C)CO)C(=O)Cc2cc(NC(=O)C3CC3)ccc2O[C@@H]1CN(C)Cc1ccc(C(=O)Nc2ccccc2N)cc1	·	-0.027	-0.2	13.1
COc1ccc(S(=O)(=O)NCc2cccnc2)c(C)c1C	·	·	1.8	-0.5
Cc1noc(C)c1NC(=O)Nc1ccc2c(c1)C(=O)N([C@H](C)CO)C[C@H](C)[C@H](CN(C)CC1CCCCC1)OCCCC[C@@H](C)O2	?	0.144	0.4	3.1
COc1cc(O)c2c(c1C)C(C)C(O)(CO)OC2=O (stereo not given)	-3.0	-0.229	0.2	0.7
C[C@H](CO)N1C[C@H](C)[C@@H](CN(C)S(=O)(=O)c2ccc(Cl)cc2)Oc2ccc(NC(=O)Nc3ccc4c(c3)OCO4)cc2C1=O	·	-0.0462	·	8.3
Cc1ccc2c(C)nc(N/C(N)=N/S(=O)(=O)c3ccccc3)nc2c1	-7.0	0.0935	-0.1	-9.7
CN1c2ccccc2C(=O)/C(=C\Nc2cc(C(F)(F)F)cc(C(F)(F)F)c2)S1(=O)=O	·	0.199	0.4	-18.3
C[C@@H]1CN([C@H](C)CO)C(=O)c2cc(NS(=O)(=O)c3ccccc3)ccc2O[C@@H]1CN(C)Cc1ccc(C(=O)O)cc1	·	-0.536	0.7	-8.5
COC(=O)c1sccc1NC(=O)Cn1nnc(-c2ccc(C)cc2)n1	·	·	-0.5	0.1
C[C@@H]1CN([C@H](C)CO)C(=O)Cc2cc(NS(C)(=O)=O)ccc2O[C@@H]1CN(C)Cc1ccc(-c2ccccc2)cc1	-2.9	0.145	-2.3	-5.0
C[C@@H]1CN([C@H](C)CO)C(=O)Cc2cc(NS(C)(=O)=O)ccc2O[C@H]1CN(C)CC1CCCCC1	34.0	-0.0851	0.0	-22.1
CSc1scc2c1-c1nn(C(=O)c3cccc(C(F)(F)F)c3)cc1CC2	-13.2	0.124	-0.7	-11.2
Cc1cc2ncn(CC(O)COc3ccc4cc(Br)ccc4c3)c2cc1C (stereo not given)	·	·	-4.8	23.4
COc1c(OC)c(O)c2c(=O)cc(-c3ccc(O)cc3)oc2c1OC	-28.6	0.399	-1.7	-39.6
COc1ccc(Cl)cc1NC(=O)CN(c1cc(Cl)c(Cl)cc1Cl)S(C)(=O)=O	·	·	3.0	-9.7

Look-ups from the list.
YB-1 expression, C[C@@H]1CN([C@H](C)CO)C(=O)c2cc(NS(=O)(=O)c3ccccc3)ccc2O[C@@H]1CN(C)Cc1ccc(C(=O)O)cc1 → -0.536
PD-1 reverse act, COc1ccc(S(=O)(=O)NCc2cccnc2)c(C)c1C → 1.8
PD-1 reverse act, COc1ccccc1NC(=O)C1=C(C)Nc2ncnn2C1c1ccncc1 (stereo not given) → 1.9
MITF inh, COc1ccc(Cl)cc1NC(=O)CN(c1cc(Cl)c(Cl)cc1Cl)S(C)(=O)=O → -9.7

High-throughput results: PubChem BioAssay, Broad Institute
